Bioassay records deposited in PubChem by National Center for Advancing Translational Sciences (NCATS).
Marburg entry – inhibitors of Marburg virus binding or entry into cells; AID 720532; Potency, µM (titrated, usually from 49.2 µM), for the others: at the top dose activity change, negative = inhibition, most hits filed as inhibitors; Marburg virus pseudotype entry/binding inhibition, cell-based; control for the full effect not named in the record; many of its hits are not listed in these tables; 6.5% of 18,000 active; active means well fitted inhibition curve with a large enough effect; inconclusive means small, poorly fitted or top-dose-only effect; inactive means no such curve, though single readings can be large or run the other way; tested in HEK293 cells; further: luciferase read-out
Lassa entry – blocks Lassa virus binding or cell entry; AID 720533; Potency, µM (doses to about 49.2 µM), for inactives: at the top dose activity change, negative = inhibition, most hits filed as inhibitors; 4.1% of 18,000 active; Lassa virus pseudotyped entry inhibition, cell-based qHTS; control for the full effect not named in the record; many of its hits are not listed in these tables; active = well fitted inhibition curve with a large enough effect; inconclusive = small, poorly fitted or top-dose-only effect; inactive = no such curve, though single readings can be large or run the other way; tested in HEK293 cells; further: luciferase read-out
The depositor's hits bear a star; & = joins results of further samples; [ ] = dose if it differs, or a comment. On the % scale 0 is the no-effect control and ±100 the full control effect; potency means the concentration at half of the fitted maximal effect. Not all compounds are listed; rates above refer to the full screens.

`CC(C)C1C(=O)N(Cc2cn(Cc3ccco3)nn2)CCS(=O)(=O)N1Cc1ccc(-c2cccc(N(C)C)c2)cc1` (stereo unspecified) gave Marburg entry 24% and Lassa entry 13%.
Screening CC(C)(C)NCC(O)c1ccc(O)c(CO)n1 (stereo unspecified) returned Marburg entry 14% and Lassa entry -19%.
For Cc1cc(C(=O)NCCc2ccc(S(=O)(=O)NC(=O)NN3CCCCCC3)cc2)no1 the results were Marburg entry 5% and Lassa entry 14%.
Screening CC(=O)OC[C@H]1O[C@H](C#Cc2ccc(C(C)(C)C)cc2)C=C[C@H]1OC(C)=O returned Marburg entry inconclusive and Lassa entry -26%[8.59 µM].
Screening CCc1cc(C(=O)NCc2c(C)ncc3c2CCN(C(=O)C2=CCCC2)C3)no1 returned Marburg entry -10% and Lassa entry -10%.
COc1cccc(CNC(=O)c2c(OC)cc(=O)n3c2CCN(C(=O)c2csc(C)n2)CC3)c1 was read as Marburg entry 0% and Lassa entry 0%.
`COc1c2ccoc2nc2c(OC)c(OC[C@H](O)C(C)(C)O)ccc12` gave Marburg entry 6%[17.8 µM] and Lassa entry -5%[17.8 µM].
`CC(NC(=O)c1cc(F)ccc1F)c1nnc2n1CCN(Cc1ccco1)CC2` (stereo unspecified) gave Marburg entry 4% and Lassa entry -16%.
Screening COc1ccc2c(c1)OC/C(=C/c1ccc(OC)c(OC)c1)C2=O returned Marburg entry inconclusive and Lassa entry -10%.
O=c1[nH]cnc2nc[nH]c12 was read as Marburg entry 13% and Lassa entry -5%.
NCC[C@H](O)C(=O)N[C@@H]1C[C@H](N)[C@@H](O[C@H]2O[C@H](CN)[C@@H](O)[C@H](O)[C@H]2N)[C@H](O[C@@H]2O[C@H](CO)[C@@H](O)[C@H]2O)[C@H]1O was read as Marburg entry -5%[17.8 µM] and Lassa entry -6%[17.8 µM].
`CCCCC(CC)COC(=O)c1ccccc1C(=O)OCC(CC)CCCC` (stereo unspecified) gave Marburg entry -22%[107 µM] and Lassa entry -23%[107 µM].
`C=CC(C)(C)c1[nH]c2ccccc2c1C1=C(O)C(=O)C(c2c[nH]c3c(CC=C(C)C)cccc23)=C(O)C1=O` gave Marburg entry -7% and Lassa entry 14µM*.
CCCOC(=O)c1cc(O)c(O)c(O)c1 was read as Marburg entry 25µM* and Lassa entry -22%.
COc1ccc(NC(=O)C[C@H]2C(=O)N(c3ccccc3)C[C@@H]2CSC)cc1 was read as Marburg entry -11%.
`COc1ccc2c(c1)O[C@@H](c1ccc3c(c1)OCO3)[C@H](OC(=O)NCCc1ccc(OC)c(OC)c1)C2=O` gave Marburg entry 0% and Lassa entry -14%.
COc1ccccc1C1CN(Cc2cccc(C)n2)Cc2ccccc2O1 (stereo unspecified) was read as Marburg entry 5.6µM* and Lassa entry 7.1µM*.
Screening N#C/C(=C\c1c[nH]c2ccccc12)C(=O)c1ccc(O)c(O)c1 returned Marburg entry 44%[activator].
O=S1(=O)C=CCN1CCc1ccccc1 was read as Marburg entry 23% and Lassa entry -21%.
Screening CN(CC1COCCO1)C(=O)c1cnn(-c2ncc3c(n2)-c2ccccc2CCC3)c1C1CC1 (stereo unspecified) returned Marburg entry 51%[activator] and Lassa entry -5%.
`Cc1c(CN2CCOc3c(cc(-c4ncc(C(F)(F)F)cc4Cl)cc3OCC3CCCO3)C2)cnn1C` (stereo unspecified) gave Marburg entry -18% and Lassa entry -4%.
COc1ccc(Nc2ncnc3ccc(OC)cc23)cc1 was read as Marburg entry 15% and Lassa entry 5%.
`CCN1CCN(c2cc(-c3ccc(F)cc3)c3c(n2)CCCCCC3)CC1` gave Marburg entry 7.9µM* and Lassa entry 13µM*.
Screening CC(C)=CCN1C(=O)[C@@]2(CC(C)=C[C@@H](COCc3ccccc3)O2)c2ccccc21 returned Marburg entry 3%[8.59 µM].
For COc1ccccc1CN1CCOc2ccc(CN3CCCCC3CO)cc2C1 (stereo unspecified) the results were Marburg entry inconclusive and Lassa entry 1%.
Screening CCCNC(=O)N1N=C(c2ccc(N)cc2)c2cc3c(cc2[C@H]1C)OCO3 returned Marburg entry -8% and Lassa entry -8%.
Screening Cc1ccc(C2(O)CCN(CCCC(=O)c3ccc(F)cc3)CC2)cc1 returned Marburg entry inconclusive and Lassa entry -18%.
`CC[C@H](C)N` gave Marburg entry 25% and Lassa entry -8%.
Screening C=C[C@@](C)(O)C1CC2C=CCOP(=O)(O2)O1 (stereo partly specified) returned Marburg entry 89% and Lassa entry -2%.
`CCn1c(-c2nonc2N)nc2c(N3CCCC3)nccc21` gave Marburg entry inconclusive.
COc1ccccc1CCNc1ncnc2sc(C(=O)N3CCCC3)c(C)c12 was read as Marburg entry 3% and Lassa entry inconclusive.
Cc1c(C(=O)NCC2CCCN(C)C2)cnn1-c1nccc(-c2ccco2)n1 (stereo unspecified) was read as Marburg entry -4% and Lassa entry 4%.
Screening Oc1ccc2c(c1)[C@@]13CCCCC1[C@@H](C2)N(CC1CCC1)CC3 (stereo partly specified) returned Marburg entry 10µM* and Lassa entry inconclusive.
COCCN1C(=S)NC(c2cccc(F)c2)C(C(=O)OC)=C1C (stereo unspecified) was read as Marburg entry 21%[8.59 µM] and Lassa entry 11%[8.59 µM].
For COc1cc(=O)n2c(c1C(=O)NCc1cccc(F)c1)CCN(Cc1cccnc1)CC2 the results were Marburg entry -9% and Lassa entry -2%.
N#Cc1ccc(CS(=O)(=O)c2nc3ccccc3s2)cc1 was read as Marburg entry -8% and Lassa entry 5%.
CC(C)[C@@H](CC(=O)N[C@@H]1CCNC[C@H]1C(=O)N[C@H](CC(=O)N[C@@H](CCC(=O)O)CC(=O)O)Cc1ccccc1)NC(=O)C[C@H](CO)NC(=O)[C@@H]1CCCC[C@H]1N was read as Marburg entry 20% and Lassa entry 10%.
`CCCN[C@@H]1CCc2c(OC)cccc2[C@@H]1C` gave Marburg entry -4%&7% and Lassa entry 3%&7%.
`NC(N)=NCCC[C@H](NC(=O)c1ccccc1)C(=O)Nc1ccc([N+](=O)[O-])cc1` gave Marburg entry -25% and Lassa entry 10%.
For CCCCCCCC#Cc1ccccc1C=NS(=O)c1ccc(C)cc1 (stereo unspecified) the results were Marburg entry 4%[8.59 µM] and Lassa entry 8%[8.59 µM].

The final 4 entries of the section above come first, to join the parts:
CC(C)[C@@H](CC(=O)N[C@@H]1CCNC[C@H]1C(=O)N[C@H](CC(=O)N[C@@H](CCC(=O)O)CC(=O)O)Cc1ccccc1)NC(=O)C[C@H](CO)NC(=O)[C@@H]1CCCC[C@H]1N was read as Marburg entry 20% and Lassa entry 10%.
`CCCN[C@@H]1CCc2c(OC)cccc2[C@@H]1C` gave Marburg entry -4%&7% and Lassa entry 3%&7%.
`NC(N)=NCCC[C@H](NC(=O)c1ccccc1)C(=O)Nc1ccc([N+](=O)[O-])cc1` gave Marburg entry -25% and Lassa entry 10%.
For CCCCCCCC#Cc1ccccc1C=NS(=O)c1ccc(C)cc1 (stereo unspecified) the results were Marburg entry 4%[8.59 µM] and Lassa entry 8%[8.59 µM].
Screening O=C(NC1CCCCC1)NC1CCCCC1 returned Marburg entry 15% and Lassa entry 2%.
For C=CCOC(=O)N[C@@H](Cc1ccccc1)C(C(=O)OC)=C(C)NCc1ccccc1 the results were Marburg entry -11%[8.59 µM] and Lassa entry -22%[8.59 µM].
For COc1cc(CC(C)N)c(OC)cc1Br (stereo unspecified) the results were Marburg entry 18µM* and Lassa entry inconclusive.
`COc1ccc2c(c1)C(=O)[C@@H](OC(=O)NCc1ccc3c(c1)OCO3)[C@H](c1ccc(OC)c(Br)c1)O2` gave Marburg entry 11% and Lassa entry -7%.
CC(C)C[C@H]1COc2cc(Br)ccc2S(=O)(=O)N1Cc1ccc(F)cc1F was read as Marburg entry -20% and Lassa entry 2%.
C[N+]1(C)CCO[C@](O)(c2ccc(-c3ccc([C@]4(O)C[N+](C)(C)CCO4)cc3)cc2)C1 was read as Marburg entry 7%[17.8 µM] and Lassa entry 20%[17.8 µM].
For COc1ccc([C@H]2C[C@@H](O)[C@H](n3cc(C4CC4)nn3)CN2Cc2cccs2)cc1 the results were Marburg entry -13% and Lassa entry -26%.
For O=C(c1ccc2c(c1)OCO2)N(Cc1cc2ccc(F)cc2nc1N1CCC(O)CC1)CC1CCCO1 (stereo unspecified) the results were Marburg entry inconclusive and Lassa entry -30%.
For CC(C)[C@@H](CC(=O)N[C@@H]1CCCC[C@H]1C(=O)N[C@H](CC(=O)N[C@@H](CCC(=O)O)CC(=O)O)Cc1ccccc1)NC(=O)C[C@H](CO)NC(=O)[C@@H]1CCCC[C@H]1N the results were Marburg entry 25% and Lassa entry inconclusive.
Screening CCc1noc(C)c1C(=O)N1CCOc2ccc(CN3CCCC(C(=O)c4cccnc4)C3)cc2C1 (stereo unspecified) returned Marburg entry -2% and Lassa entry -3%.
Cc1cccc2nc(CNC(=O)CN3Cc4cc(Cl)ccc4OC(C)C3)cn12 (stereo unspecified) was read as Marburg entry inconclusive and Lassa entry -16%.
For Cc1ncc2c(c1CNS(=O)(=O)c1cccs1)CCN(C(=O)/C=C/c1cc(F)cc(F)c1)C2 the results were Marburg entry -18% and Lassa entry -23%.
For CC/C=C\C/C=C\C/C=C\C/C=C\C/C=C\C/C=C\CCC(=O)O the results were Marburg entry 16%&-14%&-11%&3% and Lassa entry 4%&2%&-4%&-3%.
`COC(=O)N(C=Cc1ccc(OC)cc1)CCc1ccc(OC)c(OC)c1` gave Marburg entry 3%[8.59 µM] and Lassa entry 1%[8.59 µM].
`C[C@]12C=CC(=O)C=C1CC[C@@H]1[C@@H]2CC[C@]2(C)OC(=O)CC[C@@H]12` gave Marburg entry 8% and Lassa entry 3%.
`CC1(C)CC(C(=O)N2CCOc3ccc(CN4CCN(Cc5ccccn5)CC4)cc3C2)CCO1` (stereo unspecified) gave Marburg entry 5% and Lassa entry 2%.
Screening CC(=O)N[C@@H](CCC(=O)O)C(=O)O returned Marburg entry -7% and Lassa entry -8%.
Screening COC1=C[C@H](C(=O)NCc2ccc(Cl)cc2)C(C)C(c2ccccc2)CC1=O (stereo partly specified) returned Marburg entry -1%[8.59 µM] and Lassa entry 21%[8.59 µM].
O=C(Nc1cccc(C(=O)N2CCCC2)c1)C1CCCCC1 was read as Marburg entry 19% and Lassa entry 28%.
CO/N=C(\C(=O)N[C@@H]1C(=O)N2C(C(=O)[O-])=C(C[n+]3cccc4c3CCC4)CS[C@H]12)c1csc(N)n1 was read as Marburg entry -26% and Lassa entry -17%.
OC[C@H]1O[C@@H](O[C@H]2[C@H](O)[C@@H](O)[C@H](O)O[C@@H]2CO)[C@H](O)[C@@H](O)[C@@H]1O was read as Marburg entry 9% and Lassa entry -2%.
Screening CC(CCN1CCc2nc(-c3ccccc3)c(-c3ccccc3)cc2C1)=NOC[C@@H](O)COCc1ccco1 returned Marburg entry 24%[8.59 µM] and Lassa entry 6%[8.59 µM].
`CC(C)OC(=O)[C@@H]1CC[C@H](C)[C@@H](CCC[C@@H]2C[C@@H](O)C[C@H](CC#N)O2)O1` gave Marburg entry -16% and Lassa entry -5%.
`Cc1cccc(C(=O)N2CCC(=O)N([C@H](COCc3ccccc3)Cc3ccccc3)CC2)c1` gave Marburg entry -19% and Lassa entry inconclusive.
For CC(=O)C1=C(C)N(CCC=Cc2ccccc2)C(=O)NC1c1ccccc1 (stereo unspecified) the results were Marburg entry inconclusive and Lassa entry -11%[8.59 µM].
CCCCc1nc2c(c3c1C[C@H](C)OC3)CN(S(=O)(=O)c1ccc(NC(C)=O)cc1)CC2 was read as Marburg entry 25%[8.59 µM] and Lassa entry 3%[8.59 µM].
For CC(c1ccon1)N(C)C(=O)c1cnn(-c2ncc3c(n2)-c2ccccc2CC3)c1C1CC1 (stereo unspecified) the results were Marburg entry 5% and Lassa entry 22%.
Nc1nc2[nH]c(=O)c(=O)[nH]c2c(=O)[nH]1 was read as Marburg entry -5% and Lassa entry 6%.
For C=CCN1CCCC1CNC(=O)c1cc(S(N)(=O)=O)cc(OC)c1OC (stereo unspecified) the results were Marburg entry 11% and Lassa entry -11%.
For C[C@@H](CN1CC(=O)NC(=O)C1)N1CC(=O)NC(=O)C1 the results were Marburg entry -15% and Lassa entry 1%.
C=C(C)CCN1C(=O)NC(c2ccccc2)C(C(C)=O)=C1C (stereo unspecified) was read as Marburg entry 7%[8.59 µM] and Lassa entry 26%[8.59 µM].
`CN1CCc2cc3c(cc2C1O)OCO3` (stereo unspecified) gave Marburg entry -7% and Lassa entry 6%.
`Cc1c(C(=O)NCCc2cccnc2)cnn1-c1ncc2c(n1)-c1ccccc1CC2` gave Marburg entry inconclusive and Lassa entry 41%[activator].
Screening COCCN1C(=O)CC[C@@]23C1=NC(C(=O)OC)=C(C(=O)OC)[C@@H]2N(C)c1ccccc13 returned Marburg entry inconclusive and Lassa entry -18%[8.59 µM].
For Cc1cccc(C2=NN(c3ccccc3)[C@H](CO)[C@H]2c2ccccc2)c1 the results were Marburg entry 1% and Lassa entry -12%.
CCCCC/C=C\C=C\[C@@H](O)CCCCCCCC(=O)O was read as Marburg entry 2% and Lassa entry -4%.

Arranged by heavy-atom count (highest first): part of the list above
Screening CCc1noc(C)c1C(=O)N1CCOc2ccc(CN3CCCC(C(=O)c4cccnc4)C3)cc2C1 (stereo unspecified) returned Marburg entry -2% and Lassa entry -3%.
CO/N=C(\C(=O)N[C@@H]1C(=O)N2C(C(=O)[O-])=C(C[n+]3cccc4c3CCC4)CS[C@H]12)c1csc(N)n1 was read as Marburg entry -26% and Lassa entry -17%.
COc1cccc(CNC(=O)c2c(OC)cc(=O)n3c2CCN(C(=O)c2csc(C)n2)CC3)c1 was read as Marburg entry 0% and Lassa entry 0%.
